Biofilm kill mix: mixture kills Candida albicans biofilm cells. 0.02% of 120,000 active. inhibition, % at 7.6 µM. C. albicans biofilm persisters + clotrimazole, fluorescence viability; primary screen in compound mixtures of four per well. AID 1242;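 active means inhibition above 30.3% in the primary screen of four-compound pools, then above 30% when the compound was retested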;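 further: compounds exposed to preformed 24 h biofilms for 48 h; the number belongs to the whole pool; some results filed as inactive read as strong as hits; inactives centre near 12; 0% = biofilm with clotrimazole alone and 100% = kill control; retested singly at about 60 µM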
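System: C. albicans CAF4-2 wild-type biofilms; Medium: RPMI/MOPS medium, pH 7.0; Reagent: Clotrimazole, 50 µg/mL; Times: biofilm formation 24 h, compound exposure 48 h, 37 °C; Detection: 2-h Alamar Blue fluorescence, 535/590 nm excitation/emission; Evaluation: percent inhibition of biofilm viability.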
Numbers without * were called inactive.

SMILES | Biofilm kill mix
COc1cccc(OC)c1CN1CCCC(C(=O)c2ccccc2SC)C1 (stereo unspecified) | 11
COc1ccccc1Oc1c(C)oc2c(CN(C)C)c(O)ccc2c1=O | 24
O=C(O)c1ccc(-c2nnn(Cc3ccccc3F)n2)cc1 | 20
O=c1ncn(-c2ccccc2C(F)(F)F)c2ncccc12 | 7
O=c1[nH]c(SCc2cccc([N+](=O)[O-])c2)nc2[nH]ncc12 | 7
COC(=O)[C@H](C)NC(=O)Nc1cccc(Br)c1 | 18
CCOc1ccc(NC(=S)N(CCc2c(C)[nH]c3ccc(C)cc23)Cc2ccncc2)cc1 | 10
CC(c1ccon1)N(C)Cc1cn(C)nc1-c1ccc2c(c1)OCCO2 (stereo unspecified) | 14
Cc1ccc(CNC(=O)CSc2nc3ccsc3c(=O)n2Cc2ccccn2)cc1 | 20
Cc1c2c(n3c(nc4ccccc43)c1C#N)N(CCN(C)C)CC2 | -4
COCc1ccc(C(=O)Nc2ccc(C(=O)O)cc2)o1 | 17
Nc1ccc2nc(C3CCCCC3)[nH]c2c1 | 10
CC(C)(C)N(NC(=O)Nc1ccccc1)C(=O)c1ccccc1 | 13
CC1(C)Cc2sc3c(=O)[nH]c(=S)[nH]c3c2CO1 | 33
CC1=CC=CN2C1=NC(=O)CC2(C)C(=O)N(CC(=O)NC1CCCC1)c1ccccc1C (stereo unspecified) | 16
COc1ccc(S(=O)(=O)N2CCOCC2)cc1NC(=O)CCc1c[nH]c2ccccc12 | 9
CN(C)CCCN(C(=O)CCSc1ccccc1)c1nc2cc3c(cc2s1)OCO3 | 15
CSc1ncccc1C(=O)NCCc1ccccc1 | -2
COc1ccc(-n2c(=S)[nH]c3cc(C(=O)NC4CCCCC4)ccc3c2=O)c(OC)c1 | 20
CC(C)NC(=O)CCCC(=O)NC(C)C | 15
COc1ccccc1/C=C/C(=O)OCC(=O)c1c(N)n(C)c(=O)n(C)c1=O | 14
Cc1nnsc1-c1onc(C)c1C(=O)Nc1cc(Cl)cc(Cl)c1 | 2
S=c1[nH]nc(-c2ccccn2)n1/N=C/c1cccc2ccccc12 | 14
CSC1=N/C(=C/c2ccc(-n3cncn3)cc2)C(=O)N1 | 8
O=C1CNC(=O)/C1=C/c1ccc(Br)cc1 | 8
O=C1CC(c2ccccc2)CC2=C1C=Nc1ccccc1N2 (stereo unspecified) | 9
FC(F)(F)c1cnc(N/N=C/c2ccncc2)c(Cl)c1 | 5
COc1ccc(C(=O)N/N=c2\oc3ccccc3cc2C(N)=O)cc1 | 21
CC1(C)Cc2ccccc2-c2nc3n(c(=O)c21)CCS3 | 12
CCCOC(=O)/C(=C\C=C\c1ccco1)NC(=O)c1ccccc1 | 43
Nc1c(Cl)c(Cl)nc(C(=O)N/N=C/c2cccnc2)c1Cl | 12
Cn1c(COc2ccc(Cl)cc2)nnc1SCC(=O)Nc1ccc2c(c1)CCC2 | 7
COc1cc(C(=O)N/N=C(\c2ccccc2)c2ccccn2)cc(OC)c1OC | 10
CC(C)S(=O)(=O)c1cnc(N2CCOCC2)nc1N | 15
Cc1oc2ccc(OCc3c(F)cccc3Cl)cc2c1C(=O)O | 19
CC1CN(C)C(C)c2c1oc1ccc([N+](=O)[O-])cc21 (stereo unspecified) | 0
O=C1COc2ccc(N3C(=O)C=CC3=O)cc2N1 | -2
COc1ccc(CNc2ccc([N+](=O)[O-])cc2C)cc1 | 16
CC(=NCCc1c(C)[nH]c2ccc(OCc3ccccc3)cc12)C1=C(O)CC(c2ccccc2)CC1=O (stereo unspecified) | 3
NC(=O)CSC1=Nc2ccccc2C2=NC(c3ccccc3)C(=O)N12 (stereo unspecified) | 3
Nc1[nH]c(=O)ncc1F | 5
NC(=O)c1cnccn1 | 9
Cc1cccc(NC(=O)C2CCCC2)c1 | 13
Cc1ccnn1CC(=O)N/N=C/c1cccs1 | 7
CCOC(=O)c1sc(S(C)(=O)=O)c2c1CCc1conc1-2 | 15
COc1ccc2c(CC(=O)Nc3nccs3)coc2c1 | 13
Cc1nc(NS(=O)(=O)c2ccccc2)sc1C(=O)NN | 21
O=C(NCc1ccc(Cl)cc1)C1CCC(CNc2c(N3CCOCC3)c(=O)c2=O)CC1 (stereo unspecified) | 16
NS(=O)(=O)c1cccc(NC(=O)CCSc2ccc(Cl)cc2)c1 | 2
Cn1c(CN2CCCCC2)nc2cc([N+](=O)[O-])ccc21 | 20
CC(=O)OCC1=C(C(=O)O)N2C(=O)C(NC(=O)CCn3nc(C)c(Cl)c3C)C2SC1 (stereo unspecified) | 21
COc1cc(Cc2ccc(N)c(OC)c2)ccc1N | 18
CCOCCCNC(=S)Nc1cc(C)cc(C)c1 | 9
Cc1cc2cc(C)c(NCCNC(=O)c3ccccc3F)nc2cc1C | 14
Cc1nnc(SCc2nnc(-c3cccs3)o2)s1 | 18
Cc1ccc(Cl)cc1N1CCN(C(=O)c2ccc3nc[nH]c3c2)CC1 | 15
CCn1c2ccccc2c2cc(NC(=O)COC(=O)c3cccc(S(=O)(=O)NC)c3)ccc21 | 11
CCc1ccc(-c2cc(C(=O)N/N=C/c3c[nH]c4ccccc34)[nH]n2)cc1 | 12
N#C/C(=C(/O)CN1CCCC1)c1nc(-c2ccccc2)cs1 | 15
CCCN(CCC)CC(O)CN1C(=O)NC(C)(C)C1=O (stereo unspecified) | 2
(further entries)
SMILES | Biofilm kill mix
COc1ccc(O)c(/C=N/n2c(-c3ccco3)csc2=Nc2cccnc2)c1 | 17
CCOC(=O)c1c2n(c3ccc(O)cc13)CCC2 | 17
O=C(N/N=C/c1cc2c(cc1Br)OCO2)c1c[nH]c2ccccc12 | 7
N#CCc1ccc(NS(=O)(=O)c2ccc(C3CCCCC3)cc2)cc1 | 14
Cn1c(=O)c2[nH]c(-c3ccccc3Cl)c(O)c2n(C)c1=O | 0
NC(=O)C1CC(=O)N(c2ccc(OCc3ccc(Cl)cc3)cc2)C1 (stereo unspecified) | 7
CC(C)COc1ccc(C(=O)Nc2ccc([N+](=O)[O-])cc2)cc1 | -1
O=C(Nc1cccc2ncccc12)c1ccc(OCc2ccccc2)cc1 | 16
CCCCNc1nc2c(c(=O)n(C)c(=O)n2C)n1CCC | 14
CCc1ccccc1NC(=O)c1ccc(Cn2cc([N+](=O)[O-])cn2)cc1 | 2
O=C(O)c1cn(Cc2ccccc2Cl)c2ccc(S(=O)(=O)N3CCOCC3)cc2c1=O | 19
CCN(CCO)C(=O)CC1C(=O)NCCN1Cc1c(F)cccc1Cl (stereo unspecified) | 13
COC(=O)CCC(=O)OC1(C)C(=O)C2=CN(CCCOC(C)C)C(c3ccc(OC)cc3)=CC2=C(Br)C1=O (stereo unspecified) | 16
Cc1ccc(NC(=O)CN(C)C(=O)Cn2cc(C(F)(F)F)cc(Cl)c2=O)cc1 | 9
NC(=S)N/N=C/c1ccc2c(c1)OCCO2 | 9
COc1ccc(OC)c(NC(=O)CSc2nnnn2C)c1 | 12
Fc1ccc(C2=CC(c3ccco3)n3nnnc3N2)cc1 (stereo unspecified) | 23
O=C(NNc1ccccc1F)C1CCC1 | 11
COC(=O)c1ccccc1NC(=O)NCCc1ccccc1OC | 14
Oc1ccc(/C=N/NC(=S)Nc2cccnc2)cc1 | 22
CC(=O)N1Cc2ccccc2CC1C(=O)N1CCN(c2ccccc2)CC1 (stereo unspecified) | -9
Cc1cc(C)c2[nH]c(=O)c(CN(Cc3cccs3)C(=S)NCc3ccco3)cc2c1 | 8
Cc1cc(-c2nn(C)c(=O)c3ccccc23)cc(C)c1O | 6
O=C(Nc1ccc(N2CCOCC2)cc1)c1cc(-c2ccncc2)nc2ccccc12 | 4
NNc1nc2ccc(F)cc2s1 | 8
COc1ccc(C(=O)N2CCOC2CNC(=O)C(=O)NCc2ccc3c(c2)OCO3)cc1 (stereo unspecified) | 3
C#C[C@]1(O)CC[C@H]2[C@@H]3CCc4cc(O)ccc4[C@H]3CC[C@@]21C | 19
CCC(C)(C)NC(=O)C(c1cccs1)N(C(=O)c1ccn[nH]1)c1cccc(OC)c1 (stereo unspecified) | 17
COc1cc(C(=O)NNC(=S)NC(=O)c2ccc(Cl)cc2)cc(OC)c1OC | 11
Cc1cccc(COCC(CC(C)C)N2CCN(C(=O)c3ccc(C(F)(F)F)cc3)CCC2=O)c1 (stereo unspecified) | 7

15 entries already listed, arranged by count of non-hydrogen atoms, lowest first.
SMILES | Biofilm kill mix
NNc1nc2ccc(F)cc2s1 | 8
O=C(NNc1ccccc1F)C1CCC1 | 11
NC(=S)N/N=C/c1ccc2c(c1)OCCO2 | 9
Oc1ccc(/C=N/NC(=S)Nc2cccnc2)cc1 | 22
COc1ccc(OC)c(NC(=O)CSc2nnnn2C)c1 | 12
C#C[C@]1(O)CC[C@H]2[C@@H]3CCc4cc(O)ccc4[C@H]3CC[C@@]21C | 19
COC(=O)c1ccccc1NC(=O)NCCc1ccccc1OC | 14
CCN(CCO)C(=O)CC1C(=O)NCCN1Cc1c(F)cccc1Cl (stereo unspecified) | 13
CC(=O)N1Cc2ccccc2CC1C(=O)N1CCN(c2ccccc2)CC1 (stereo unspecified) | -9
Cc1ccc(NC(=O)CN(C)C(=O)Cn2cc(C(F)(F)F)cc(Cl)c2=O)cc1 | 9
CCC(C)(C)NC(=O)C(c1cccs1)N(C(=O)c1ccn[nH]1)c1cccc(OC)c1 (stereo unspecified) | 17
O=C(Nc1ccc(N2CCOCC2)cc1)c1cc(-c2ccncc2)nc2ccccc12 | 4
COc1ccc(C(=O)N2CCOC2CNC(=O)C(=O)NCc2ccc3c(c2)OCO3)cc1 (stereo unspecified) | 3
Cc1cccc(COCC(CC(C)C)N2CCN(C(=O)c3ccc(C(F)(F)F)cc3)CCC2=O)c1 (stereo unspecified) | 7
COC(=O)CCC(=O)OC1(C)C(=O)C2=CN(CCCOC(C)C)C(c3ccc(OC)cc3)=CC2=C(Br)C1=O (stereo unspecified) | 16

(next part)
SMILES | Biofilm kill mix
Cc1cccc2cncc(OCc3nnc(SC(F)F)n3C)c12 | 8
COc1ccc(-c2csc(CCN3N=C(C)CC3=O)n2)cc1 | 10
N#C/C(=C\c1cn(-c2ccccc2)nc1-c1cc2ccccc2o1)c1nc2ccccc2[nH]1 | 9
CCOC(=O)CN(C(=O)Cn1nnc(-c2ccc(OC)cc2)n1)C(C(=O)NC1CCCC1)c1ccc(F)cc1 (stereo unspecified) | 7
Cc1nnc(SCC(=O)N2CCOCC2)[nH]c1=O | 13
Cc1ccc(S(=O)(=O)Nc2c(C)n(C)n(-c3ccccc3)c2=O)cc1 | 1
Cc1cccc(N=Nc2ccc(O)c3ncccc23)c1 | 21
O=c1[nH]c(CSc2nc(-c3ccccc3)cs2)nc2ccccc12 | 12
Cc1ccc2c(c1)C1CN(C)CCC1N2C(=O)COc1ccccc1F (stereo unspecified) | 9
COc1cc(NC(=S)NNC(=O)CC(C)C)c(OC)cc1Cl | 7
Cn1c(=S)oc2ccccc21 | 22
Cc1csc(CN(C)C(=O)CC2C(=O)NCCN2CC(C)(C)C)n1 (stereo unspecified) | 16
CCCN(C(=O)CSc1nc2c(cnn2-c2ccccc2)c(=O)[nH]1)C1CCS(=O)(=O)C1 (stereo unspecified) | 20
COc1cc(OC)cc(C(=O)N2CCC(C(=O)Nc3ccc4c(c3)OCCO4)CC2)c1 | 19
COC(=O)CSc1nnc(-c2ccc(OC)c(OC)c2)o1 | 12
CCOc1ccccc1C(=O)NN1C(=O)C2CCCCC2C1=O (stereo unspecified) | 11
CCN(C(=O)CC(C)C)c1nnc(Cn2nnc3ccccc32)s1 | 11
O=C1OC(/C(=C\Nc2ccc(F)cc2F)[N+](=O)[O-])c2ccccc21 (stereo unspecified) | -1
CCN1CNC(=S)N(c2cccc(C)c2)C1 | -6
Cc1onc(-c2ccccc2)c1C(=O)NNC(=S)NC(=O)c1ccc2c(c1)OCO2 | 14
CCn1cc(Cl)c(C(=O)NNC(=O)CCn2nc(C)c([N+](=O)[O-])c2C)n1 | 8
Cc1cc(F)c(F)c(C(=O)N2CCCCC2C)c1Cl (stereo unspecified) | 25
CCN(CC)S(=O)(=O)c1ccc(Cl)c(NC(=O)c2cc(Cl)cc(Cl)c2)c1 | 7
Cc1ccc(C(=O)NCCn2c(N)c(C#N)c3nc4ccccc4nc32)cc1 | 19
CCOc1ccc2[nH]c3c(=O)n(CCc4ccc(OC)cc4)cnc3c2c1 | 20
CC(C)(C)C(=O)/C(C#N)=C/c1ccc(O)cc1 | 17
CCC(Sc1ccc2nnc(-c3cccnc3)n2n1)C(=O)OC (stereo unspecified) | 14
CN(C)c1ccc(/C=N/NC(=O)CCCO)cc1 | 7
CC(=O)c1sc(C(C)(C)C)cc1NC(=O)CCC(=O)O | 13
N#CCCn1cc(C(=O)Nc2ccc(C(=O)O)cc2)c(-c2cccs2)n1 | 17
Cc1cc(C)nc(NC(=S)Nc2ccc(Br)cc2Cl)c1 | 12
Cc1ccc(CN2CCN(Cc3ccon3)CC2CCO)cc1 (stereo unspecified) | 8
CC(=O)Nc1ccc(NC(=O)CCn2cnnn2)cc1 | 6
CC(C)(C)c1ccc(-c2nnc(SC3CCOC3=O)n2Cc2ccccc2)cc1 (stereo unspecified) | 14
CCOC(=O)c1c(Cc2ccccc2)c[nH]c1C | -2
CC1CN(C(=O)N2CCOCC2)CCN1C(=O)N1CCOCC1 (stereo unspecified) | 8
CC(C)(C)C(=O)OCc1nc(-c2ccc(C(F)(F)F)cc2)cs1 | 15
O=C(Nc1ccn(Cc2cccc3ccccc23)n1)c1cccnc1 | 14
CCOc1ccc(CCNS(=O)(=O)c2ccc3c(c2)NC(=O)CC(=O)N3)cc1OCC | 9
O=c1c2sccc2nc(SCc2cc(=O)n3ccccc3n2)n1Cc1ccccn1 | 9
Cc1[nH]n(-c2ccccc2)c(=O)c1N=Nc1ccc2c(c1)OCO2 | 13
CN(C)c1ncc(C2=C(Cl)C(=O)C(N3CCCC3)=C(Cl)C2=O)s1 | 18

Screening results deposited in PubChem BioAssay by PCMD.

These rows are one share of the data; rates above refer to the full screens.
